VACV mCherry inh: inhibitors of vaccinia virus infection (mCherry reporter signal) | Vaccinia virus mCherry reporter infection, fluorescence; about a quarter of the inactives have no number | 310,000 compounds, 0.63% hits | Potency, µM (titrated, usually from 36.5 µM), without a hit: at the top dose activity change, negative = inhibition, usual class: inhibitors; active = well fitted inhibition curve with a large enough effect; inconclusive = small, poorly fitted or top-dose-only effect; inactive = no such curve, though single readings can be large or run the other way; tested in A549 cells; also: nearly all actives have a fitted effect of over 35% in size; inactives centre near -10
VACV Venus inh: inhibitors of vaccinia virus (Venus reporter); Vaccinia virus Venus reporter expression, fluorescence; Potency, µM (doses to about 36.5 µM), for inactives: at the highest dose activity change, negative = inhibition, hits mostly inhibitors; 330,000 compounds, 0.46% hits; AID 720580; active means well fitted inhibition curve with a large enough effect; inconclusive means small, poorly fitted or top-dose-only effect; inactive means no such curve, though single readings can be large or run the other way; tested in A549 cells; also: nearly all actives have a fitted effect of over 30% in size; inactives centre near -10
An asterisk follows results filed as active; i = inactive; ? = inconclusive; . = not tested or not shown; & = joins results of further samples; [ ] = dose if it differs, or a comment. % is scaled to controls: 0 for no effect and ±100 for the full control effect; potency is read from the fitted curve at half-maximal effect.

SMILES	VACV mCherry inh	VACV Venus inh
CC(Cc1ccccc1)NC(=S)CN1CCCC1=S (stereo not given)	-13%	-19%
Nc1nc(SCC(=O)Nc2ccccc2)nc2nc3c(cc12)CCCC3	-24%	?
Cc1cccc(NNC(N)=S)c1	-1%	1%
Cc1cccc(C(=O)NNC(=O)c2ccc(-c3ccccc3)cc2)c1	2%	12%
COCC(COCCCNC(=O)Nc1ccc(Br)cc1)OC (stereo not given)	.	-12%
COc1cc(-c2noc(-c3ccc(N4CCN(C)CC4)c([N+](=O)[O-])c3)n2)cc(OC)c1OC	?	?
CCC(CC)c1nn2cc(-c3ccccc3)nc2s1	-3%	-4%
C=CCN1CC[C@]23c4c5ccc(O)c4OC2C(=O)CC[C@]3(O)C1C5 (stereo not given in full)	-12%	-8%
c1ccc2c(c1)nc(NC1CCCCC1)c1nncn12	-10%	-11%
CCOc1ccc2nc(N(CCN(CC)CC)C(=O)c3ccc([N+](=O)[O-])cc3)sc2c1	?	15%
Cc1cc(C)c(C)c(S(=O)(=O)NCc2ccc(C(=O)N3CCOCC3)cc2)c1C	-3%	-22%
O=C(Cc1ccc(NC(=O)C2CCCN(C(=O)C3CCCC3)C2)cc1)Nc1ccc(C(=O)N2CCOCC2)cc1 (stereo not given)	i	-22%
Cc1ccc(S(=O)(=O)N2CCOCC2)cc1NC(=O)C(c1ccc(Cl)cc1)C(C)C (stereo not given)	-10%	?
CCN(CCCNC(=O)c1cc2cc3cc(OC)ccc3nc2s1)c1cccc(C)c1	i	-6%
O=C(CNc1ccc2c(c1)OCO2)N/N=C\c1ccccc1Cl	-9%	-1%
COc1ccc(CCN2C(=O)c3ccccc3C2c2nnnn2C(C)C)cc1OC (stereo not given)	1%	0%
NC(=O)COc1ccc(C23CC4CC(CC(C4)C2)C3)cc1	-16%	-23%
O=C1c2ccccc2C(=O)N1c1ccc(O)cc1	0%	-11%
Cc1ccc(C(=O)OCC(=O)NCc2ccc3c(c2)OCO3)o1	-4%	10%
O=C(COC(=O)C1CC1)Nc1nc(-c2ccc(F)c(F)c2)cs1	?	-28%
CSc1ccc(OC2(C)CCN(Cc3ccccc3)C2)cc1 (stereo not given)	-7%	-13%
CCN(CC)C(=O)CC(c1cc(OC)c(OC)c(OC)c1)c1c(O)cc(OC)cc1OC (stereo not given)	i	-8%
CC(C)N1CN=C(Nc2nc3ccccc3o2)NC1	i	-7%
CC(=O)N1CCc2cc(S(=O)(=O)NC(CC(C)C)C(=O)NCCc3cccc(C)c3)ccc21 (stereo not given)	-3%	-1%
O=C(CSc1nc2c(sc3ccccc32)c(=O)n1CCCN1CCCC1)NCc1ccco1	-17%	-8%
SMILES	VACV mCherry inh	VACV Venus inh
COc1cccc(OCC(=O)NC2CC(=O)N(c3cccc(OC)c3)C2)c1 (stereo not given)	-7%[7.34 µM]	-7%[7.34 µM]
CC(C)P(=O)(Cc1cccc(C#N)c1)C(C)C	-4%	-11%
COc1ccccc1N1CCN(CCCNC(=O)Nc2ccccc2)CC1	.	-11%
COCCn1c(N)c(N(Cc2ccccc2)C(=O)c2cc3ccccc3o2)c(=O)[nH]c1=O	-9%	2%
CN1CCN(S(=O)(=O)c2ccc(NC(=O)c3ccco3)cc2)CC1	.	-2%
Cc1cc(C)cc(-c2nc(-c3ccncc3)no2)c1	0%	-21%
COc1ccc(/C=C2/Sc3ccc(C(=O)NCCCN4CCOCC4)cc3NC2=O)cc1OC	i	-21%
COC(=O)[C@H](C)NC(=O)Nc1ccc(S(N)(=O)=O)cc1	i	-8%
COc1ccc(OCC(=O)N2CCN(C(=O)c3ccco3)CC2)cc1	14%	23%
CNC(=O)c1ccc2c(c1)N(Cc1cc(C)ccc1C)C(=O)c1ccccc1S2	-11%	-9%
CC(C)C1COC(c2cccc3ccccc23)=N1 (stereo not given)	-12%	-9%
CSc1nc(N2CCOCC2)c2c(c1C#N)CC(C)(C)OC2	34%[activator]	-6%
Cn1c(NC(=O)/C=C/c2ccccc2)cc(=O)n(C)c1=O	-15%	-11%
O=C(NC1=NCCS1)c1sc2cc(F)ccc2c1Cl	i	-4%
COc1ccc(-c2nc3c(c(SCC(=O)N(C)c4ccccc4)n2)Cc2cc(C)ccc2O3)cc1	-5%	-3%
COc1cccc(-c2nc(Nc3ccncc3)c3ccccc3n2)c1	12%	19%
Cc1cc(-c2csc(NC(=O)c3ccc(=O)[nH]c3)n2)c(C)n1Cc1ccccc1	-19%	-22%
COc1ccc(CNC(=O)c2cccnc2SC)cc1OC	-1%	-7%
C[C@@H]1CN([C@@H](C)CO)C(=O)CCCn2nncc2CO[C@@H]1CN(C)S(=O)(=O)c1ccc2ccccc2c1	-19%	-24%
Cc1ccccc1C(=O)OC1OC(=O)C(Cl)=C1Nc1ccccc1 (stereo not given)	?	-16%
CCCCN(CC)C(=O)c1ccccc1Oc1ccccc1	i	-19%
O=C(Nc1ccc(S(=O)(=O)N2CCOCC2)cc1)C1CCCCC1	i	-15%
Nc1c(-c2nc(-c3ccccc3)no2)nnn1CC(=O)Nc1cccc(F)c1	-4%	0%
COc1ccc(N2CCN(C(=O)C(CC(C)C)NS(=O)(=O)c3ccc4nc(C)sc4c3)CC2)cc1 (stereo not given)	-3%	-22%
CCOC(=O)C1CCN(c2ncnc3cc(OC)c(OC)cc23)CC1	i	-14%
SMILES	VACV mCherry inh	VACV Venus inh
CNS(=O)(=O)c1cccc(C(=O)OCc2cc(C(C)=O)ccc2OC)c1	-11%	-12%
Cc1cc(-c2ccc(C)c(S(=O)(=O)N(C)c3ccc(C)c(C)c3)c2)on1	-11%	-16%
CCCCNC(=S)Nc1cccc(C(C)=O)c1	i	-3%
COC(=O)c1ccccc1NC(=O)Cn1ncc2c(C)n(Cc3ccc(F)cc3)c(C)c2c1=O	-10%	-15%
COc1ccc(C(=O)c2c[nH]c(C(=O)NCc3cccnc3)c2)cc1	.	-8%
COc1ccc(C(CNC(=O)c2ccc(NS(=O)(=O)c3ccc(F)c(C)c3)cc2)N(C)C)cc1 (stereo not given)	i	-5%
O=C(OCCc1cc2ccccc2c(=O)o1)c1ccc(C(F)(F)F)cc1	-20%	-10%
C=CCN1CCc2c(cc(O)c(O)c2Br)[C@@H](c2ccccc2)C1	-8%&-19%	-25%&-12%
Cc1ccn(C)c(=N)c1	i	-13%
Clc1ccc(CNc2nc(N3CCOCC3)nc(N3CCOCC3)n2)cc1	-7%	-11%
Cc1cc(N2CCN(Cc3cn(C)nc3-c3ccccc3F)CC2)cc(C)n1	?	-30%
COc1ccccc1NC(=O)CSc1nc(O)cc(=O)[nH]1	-8%	-4%
Cc1ccc(CS(=O)(=O)c2cn(CC(=O)N(C)c3ccccc3)c3ccccc23)cc1	-4%	-3%
CN(C)c1ccc(-c2nc(N(C)Cc3ccco3)c3ccccc3n2)cc1	-11%	-20%
Cc1nc(C(=O)NNC(=O)c2ccccc2)c(C(F)(F)F)o1	-25%	-9%
CCCOc1ccc(NC(=O)CC2C(=O)N(c3ccccc3)C(=O)N2Cc2ccc(F)cc2)cc1 (stereo not given)	-17%	-23%
CCn1c2ccccc2c2cc(/C=N/NC(=O)c3cc(O)cc(O)c3)ccc21	-9%	0%
Cc1c(NC(=O)CSc2nnc(Nc3ccccc3)s2)c(=O)n(-c2ccccc2)n1C	i	-3%
COc1ccc2c(c1)CC/C2=N\OC(=O)c1cccc(C)c1	-15%	-11%
COC(=O)c1ccc2c(=O)n3nc(Nc4cc(OC)ccc4OC)sc3nc2c1	-6%	0%
CC[C@H](C)[C@H]1CNC(=O)C(=O)N1CC1CCN(CCCc2ccc(OC)c(OC)c2)CC1	i	-3%
Cc1cc(OCC(=O)N2CCC(C(=O)O)CC2)c2c3c(c(=O)oc2c1)CCC3	-14%	-16%
Cc1cc(C)c(CN2CCN(C(=O)Cn3cnc4c(NCc5ccccc5)ncnc43)CC2)c(C)c1	?	?
COC(=O)Cc1ccc(NC(=S)NCc2ccc(Cl)cc2)cc1	-9%	5%
O=C(CSc1n[nH]c(-c2ccccc2)n1)Nc1ccccc1O	-10%	-22%
SMILES	VACV mCherry inh	VACV Venus inh
CCCNc1ncnc2[nH]ncc12	-5%	11%
CCCn1c(SCC(=O)Nc2nc(C)c(C(=O)OC)s2)nnc1C(C)C	i	-19%
CCN1C(=O)NC(=O)C2(CCCC2)C1=O	-17%	-6%
COc1ccc(-c2c3c(=O)n(C)c(=O)n(C)c3cn2-c2cc(OC)ccc2OC)cc1	?	-23%
Cc1ccc(CN2CCSc3ccc(C(=O)N4CCN(c5ccccc5)CC4)cc32)cc1	-7%	-7%
Cc1ccccc1Nc1cc(C(=O)NCCCN2CCN(c3cccc(Cl)c3)CC2)c2ccccc2n1	-29%	?
Cc1oc(-c2cccs2)nc1CS(=O)CC(=O)NCc1ccc2c(c1)OCO2 (stereo not given)	i	-1%
COCc1cc(=O)[nH]c(SC)n1	i	-10%
CCN(CC)c1ccc(NC(=O)Cn2nc(C)n3cccc3c2=O)c(C)c1	-12%	-13%
Cn1c(CNC(=O)Cc2ccc3c(c2)OCO3)nnc1SCc1ccccc1	i	-6%
O=C(COc1ccccc1[N+](=O)[O-])Nc1ccc(CN2CCOCC2)cc1	-13%	-4%
Cc1ccc(NC(=O)COc2nsnc2N2CCOCC2)cc1Cl	-11%	5%
CCc1c(C)nc2cc(-c3ccccc3)[nH]n2c1=O	-25%	-11%
O=C(Cn1ncc2c3ccccc3n(Cc3ccccc3F)c2c1=O)N1CCC2(CC1)OCCO2	.	-8%
COc1cccc(-c2ccc(CN3C(C)C(=O)N(Cc4cn(Cc5ccco5)nn4)CCS3(=O)=O)cc2)c1OC (stereo not given)	11%	1%
N#Cc1c(NC(=O)c2nc3ncccn3n2)sc2c1CCCCC2	.	-1%
Cc1cccc(C(=O)Nc2c(C#N)c(C)c(C)n2Cc2ccccc2)c1	.	-18%
O=C(N/C=N/O)C1=NOC(CNc2ncc(C(F)(F)F)cc2Cl)C1 (stereo not given)	.	-2%
CC(=O)CCc1oc2ccccc2c1-c1ccccc1	-17%	-6%
COc1cc(NC(=O)COC(=O)CC(C)(C)C)c(C)cc1[N+](=O)[O-]	-22%	-5%
CC1=C(C(=O)Nc2cc(C(=O)N3CCN(c4cccc(C)c4)C(C)C3)ccc2C)SCCO1 (stereo not given)	?	-15%
O=C(CNCc1ccccc1)Nc1ccccc1-c1ccccc1	-8%	1%
O=C(Nc1ccn(CCCN2CCN(Cc3ccc(F)cc3)CC2)c(=O)n1)OCc1ccccc1	-9%	-15%
CCCCc1cc(=O)oc2cc(OCc3nn[nH]n3)c(Cl)cc12	.	-14%
Cc1cccc(N2CCN(C(=O)c3ccccn3)CC2C)c1 (stereo not given)	-10%	2%
SMILES	VACV mCherry inh	VACV Venus inh
CCn1cc(C(=O)NCC2CCCO2)c2cc(OC)c(OC)cc2c1=O (stereo not given)	-19%	-13%
Cc1ccc(-n2cccn2)c(CN2CCC(CO)(CCc3ccccc3)CC2)c1	-12%	-6%
O=c1/c(=C\c2ccc(F)cc2)sc2n1CCCN=2	-13%	-10%
COc1ccc(C2=NOC(Cn3nc(C(=O)NCc4ccc(OC(F)(F)F)cc4)cc3-c3ccccc3)C2)cc1 (stereo not given)	-9%	-22%
Cc1ccc(C(=O)N/C(=C\c2ccc3c(c2)OCO3)C(=O)Nc2ccc(C(=O)O)cc2)cc1	10%	3%
CSc1cccc(NC(=O)c2cccc(N3CCCS3(=O)=O)c2)c1	-11%	-15%
CCCCn1c(SCC(=O)Nc2nnc(C)s2)nc2c1c(=O)n(C)c(=O)n2C	i	-6%
CC(=O)Nc1nc(C(=O)O)cs1	-12%	-15%
Nc1cccc([N+](=O)[O-])c1	i	-9%
CCc1ccccc1NC(=O)Cn1c(=O)n(Cc2ccc(OC)cc2)c(=O)c2oc3ccccc3c21	-18%	-16%
CCCCC1CC2=C(C(=O)OC(C)(C)O2)C(c2ccc(Cl)cc2)O1 (stereo not given)	23%	-2%
CN(C)CCSc1nc(N)c2c3c(sc2n1)CN(C)CC3	.	-4%
CCOC(=O)C(C)Sc1nc(C2CC2)cc(C(F)(F)F)c1C#N (stereo not given)	.	-10%
COc1ccccc1N1CCN(S(=O)(=O)CCNC(=O)C2CC(=O)N(c3ccccc3)C2)CC1 (stereo not given)	-14%	-15%
Cc1ccc(NC2CC(=O)N(c3cccc([N+](=O)[O-])c3)C2=O)cc1 (stereo not given)	-1%	-9%
S=C(NCC1CCCO1)N1CCN(Cc2ccccc2Cl)CC1 (stereo not given)	-8%	-6%
CCCCNC(=O)CC1S/C(=N/N=C/c2ccc(OC)cc2)NC1=O (stereo not given)	i	-12%
COc1ccc(-c2csc3nc(-c4cccnc4)nc(N4CCC(C(N)=O)CC4)c23)cc1OC	i	?

Some of the entries above in a different format.
Cc1ccc(C(=O)N/C(=C\c2ccc3c(c2)OCO3)C(=O)Nc2ccc(C(=O)O)cc2)cc1
  VACV mCherry inh: 10%	VACV Venus inh: 3%
CSc1cccc(NC(=O)c2cccc(N3CCCS3(=O)=O)c2)c1
  VACV mCherry inh: -11%	VACV Venus inh: -15%
CCCCn1c(SCC(=O)Nc2nnc(C)s2)nc2c1c(=O)n(C)c(=O)n2C
  VACV mCherry inh: i	VACV Venus inh: -6%
CC(=O)Nc1nc(C(=O)O)cs1
  VACV mCherry inh: -12%	VACV Venus inh: -15%

Screening results: PubChem, National Center for Advancing Translational Sciences (NCATS)

Not a hit list, and some 0.82% of all compounds hit somewhere here.
